# CDC25B CDK2 inh = human CDC25B-CDK2/CyclinA binding inhibition. HTRF CDC25B-CDK2/CyclinA binding, anti-His/anti-Flag; active compounds read high. z-score (test concentration not listed). hit rate 0.72% among 94,000;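 note: score is relative to mean and SD of negative controls; strong numbers were not always called active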
# HIV TAR-Tat = HIV-1 TAR-Tat binding disruption; AID 1259389; z-score (no concentration beside the values); HIV-1 TAR RNA, Tat peptide displacement FRET; active compounds read high; hit rate 0.6% among 100,000;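 note: score is relative to mean and SD of negative controls; some compounds called inactive have numbers as strong as hits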
# Starred values were filed as active, the others as inactive; / = no result given.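 Rule for the calls: active = z-score from 3 up in half or more of its runs; inactive = the rest.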 The order is random, and some 0.87% of all compounds hit somewhere here.
compound,HIV TAR-Tat,CDC25B CDK2 inh
Cc1nc(N2CCCC2)cc(N2CCN(S(=O)(=O)c3cccc(Cl)c3)CC2)n1,0.94,1.86
O=C(Nc1nc2c(F)cccc2s1)c1ccc2c(c1)OCCO2,1.52,/
Cc1csc2c(=O)nc3c(C#N)n[nH]n3c12,/,0.8
O=C(O)c1c[nH]c2c(ccc3ccccc32)c1=O,9.31*,1.75
Cc1nnc(NCc2ccccc2Cl)c2c1nnn2Cc1ccc(F)cc1,1.85,-2
O=C(CSc1ccc(-c2cccs2)nn1)NCc1ccc2c(c1)OCO2,1.5,/
Cc1ccc(Cn2nnc3c(=O)[nH]c(C4CCN(S(=O)(=O)c5cc(C)ccc5C)CC4)nc32)cc1,1.39,2.32
Cc1ccc(-c2n[nH]c(=O)c3c2CCCC3)cc1S(=O)(=O)NCc1ccc(Br)cc1,0.46,1.3

# Reformatted: entries from further up
Cc1nnc(NCc2ccccc2Cl)c2c1nnn2Cc1ccc(F)cc1
  HIV TAR-Tat: 1.85
  CDC25B CDK2 inh: -2

O=C(CSc1ccc(-c2cccs2)nn1)NCc1ccc2c(c1)OCO2
  HIV TAR-Tat: 1.5
  CDC25B CDK2 inh: /

Cc1ccc(Cn2nnc3c(=O)[nH]c(C4CCN(S(=O)(=O)c5cc(C)ccc5C)CC4)nc32)cc1
  HIV TAR-Tat: 1.39
  CDC25B CDK2 inh: 2.32

Cc1ccc(-c2n[nH]c(=O)c3c2CCCC3)cc1S(=O)(=O)NCc1ccc(Br)cc1
  HIV TAR-Tat: 0.46
  CDC25B CDK2 inh: 1.3

# Next part.
compound,HIV TAR-Tat,CDC25B CDK2 inh
OC/C=C/c1ccc(O)c(O)c1,0.72,/
Clc1cccc(CSc2nnc(C3CCNCC3)o2)c1,0.67,-2.03
O=C(COCc1cc(-c2ccco2)on1)Nc1ccc(Cl)cc1,-6.82,/
O=C(CCCCn1c(=O)[nH]c2ccsc2c1=O)N1CCN(c2ncccn2)CC1,-0.18,-1.59
CCCOC(=O)CN1C(=O)C2C3c4ccccc4C(c4ccccc43)C2C1=O (configuration not stated),0.11,-0.21
Cc1nc(-c2ccc(C)c(S(=O)(=O)NCc3ccc(F)cc3)c2)cs1,0.84,/
CCCCNC(=O)c1ccc(Cn2c(=O)[nH]c3cc(OC)c(OC)cc3c2=O)cc1,/,-0.69
CCOc1ccc(C2c3c(oc4ccc(F)cc4c3=O)C(=O)N2CC2CCCO2)cc1 (configuration not stated),1.21,-0.34
CC[C@@H](C(=O)[C@@H](C)[C@@H](O)[C@H](C)[C@@H]1O[C@@H]([C@@H](CC)C(=O)O)CC[C@@H]1C)[C@H]1O[C@]2(C=C[C@@H](O)[C@]3(CC[C@@](C)([C@H]4CC[C@](O)(CC)[C@H](C)O4)O3)O2)[C@H](C)C[C@@H]1C,2.63,/
c1ccc2c(c1)OCC(CNc1ncnc3c1nc1n3CCCCC1)O2 (configuration not stated),-0.18,/
Nc1nc(-c2cccnc2)nn1C(=O)c1ccccc1,-0.12,8.54
Cn1cc(Br)c(-c2cccc(NC(=O)CCC(=O)O)c2)n1,/,3.78
CC12CCC(C(=O)N(CC(O)CN3CCCCC3)C1=O)C2(C)C (configuration not stated),/,0.12
CCN1CCN(C(=O)CSc2ccsc2[N+](=O)[O-])CC1,-0.56,-0.83
Cc1cccnc1NS(=O)(=O)c1ccc2[nH]c3c(c2c1)CCCC3,-1.94,/
O=C(c1ccc2c(=O)n3c(nc2c1)CCCC3)N(Cc1cccs1)C1CCCCC1,1.66,/
O=C(O)CCCNC(=S)Nc1ccc(F)c(Cl)c1,/,-1.05
COc1cccc2c(=O)c(NC(=O)N3CCC(O)CC3)c[nH]c12,-0.98,-1.86
CCOC(=O)c1cnc(Nc2nc(C)c3ccc(C)cc3n2)nc1C,-0.99,-0.53
O=C(Cn1c(=O)oc2cc(Cl)ccc21)NCCCc1ccco1,2.19,/
CCc1nnc(NC(=O)c2noc3c2COc2ccccc2-3)s1,/,-0.34
Cc1nn(CC(=O)NCc2cccs2)c(=O)c2cc3sccc3n12,/,-3.83
C=C(C)Cn1c(C2CC(=O)N(c3cc(C)cc(C)c3)C2)nc2ccccc21 (configuration not stated),1.46,-0.68
Cc1cc(C)c2c(CC(=O)Nc3sc4c(c3C(=O)NCC3CCCO3)CCC4)coc2c1 (configuration not stated),-0.17,-1.87
C=C(C)Cc1c(C)c(C#N)c2[nH]c3ccccc3n2c1=O,/,0.12
CN(C)CCN(C(=O)CCS(=O)(=O)c1ccccc1)c1nc2c(Cl)cccc2s1,1.96,/
Cc1cccc(Cn2c(-c3cccs3)noc2=O)c1,-0.06,0.86
CC1CCCCC1NC(=O)C1(C)Cn2c(cc3sccc32)C(=O)N1C(C)C (configuration not stated),0.75,-1.44
c1ccc(Cn2nnnc2-c2ccco2)cc1,/,-1.82
COCCn1cc2c(c1-c1cccc(Br)c1)c(=O)n(C)c(=O)n2C,0.07,-1.43
Cc1cccc(-c2noc(-c3ccc(F)cc3)n2)c1,/,-1.1
CCOC(=O)NC(NCc1ccccc1)(C(=O)OCC)C(F)(F)F (configuration not stated),/,-0.43

# Record cards (already shown). Order of values: HIV TAR-Tat | CDC25B CDK2 inh
# Results for CN(C)CCN(C(=O)CCS(=O)(=O)c1ccccc1)c1nc2c(Cl)cccc2s1 = 1.96 | /
# Results for C=C(C)Cc1c(C)c(C#N)c2[nH]c3ccccc3n2c1=O = / | 0.12

# The list continues.
compound,HIV TAR-Tat,CDC25B CDK2 inh
O=C(Nc1ccccc1F)n1ncc2cc(Cl)ccc21,1.42,-1.38
CN1CCN(c2oc(-c3ccc(F)cc3)nc2C#N)CC1,2.41,1.05
CCCc1cc(=O)n2nc(N(C)CC(=O)N3CCN(c4ncccn4)CC3)sc2n1,0.73,0.45
Cc1cc(C)n(-c2nc3cc(Cl)ccc3nc2Nc2ccc3c(c2)n(C)c(=O)n3C)n1,0.62,-1.69
Cc1ccc(Nc2cc(C)nc(N3CCN(S(=O)(=O)c4ccc5nc(C)sc5c4)CC3)n2)cc1,0.68,/
N#Cc1c(F)cccc1NC(=O)C1CCCCC1,/,-1.71
CC(=O)c1c(C)oc2c1cc(NS(=O)(=O)c1ccccc1)c1ccccc12,/,-0.77
Cc1cccc2cc3c(nc12)N(C(=O)c1ccco1)CC3,-1.21,-1.81
COc1ccc(S(=O)(=O)n2ccnc2)c(C)c1C,-0.58,-0.57
CC1=NS(=O)(=O)c2cc(S(=O)(=O)CC(=O)NC3CCCCC3)ccc2N1,-0.03,/
N#C/C(=C\N1CCc2ccccc21)S(=O)(=O)Cc1ccco1,/,-0.44
CSc1cccc(NC(=O)NCCN2CCN(c3ccccc3)CC2)c1,0.71,-1.32
O=C(O)CCCC(=O)N1N=C(c2ccc(Br)cc2)CC1c1ccc(Cl)cc1 (configuration not stated),1.45,-0.06
O=C(CSc1nc2c(sc3ccccc32)c(=O)n1CCCN1CCCC1)NCc1ccco1,-0.78,-0.02
O=C(Nc1ccc(-n2cnnn2)cc1)C1CCCN(c2cnccn2)C1 (configuration not stated),2.41,-1.35
CCc1cc(=O)oc2c(C)c(OC(C)C(=O)OC)ccc12 (configuration not stated),/,0.05
O=C(c1nn2c(c1Cl)NC(c1ccco1)CC2C(F)(F)F)N1CCCC1 (configuration not stated),0.2,-1.64
O=S1(=O)NC(CN2CCN(c3ccccc3F)CC2)Nc2ccccc21 (configuration not stated),0.65,/
COc1ccc2cc3cc(C(=O)N4CCC5(CC4)OCCO5)sc3nc2c1,/,-1.52
CCCCc1nn2c(=O)cc(CSCC(=O)Nc3ccccc3Cl)nc2s1,-1.27,/
Cc1cnc(NC(=O)Nc2ccccc2)c(C)n1,/,-1.92
COC(=O)C1=C(C)NC2=C(C(=O)CCC2)C1c1cc2c(cc1Br)OCO2 (configuration not stated),-0.07,-0.78
CCC(CC)c1nn2cc(-c3ccccc3)nc2s1,1.49,0.67
c1ccc2c(c1)nc(NC1CCCCC1)c1nncn12,/,-1.14
CN(C)CCNC(=O)c1ccccn1,-2.61,-0.57
Cc1ccn2c(=O)c(C(=O)NC(C)C)c(O)nc2c1,-0.4,-0.72
Cc1ccc(-c2nc(C)c(CCNS(=O)(=O)c3cccs3)s2)cc1,1.63,/
O=S(=O)(c1cccc2nsnc12)N1CCc2nc(-c3ccccc3)sc2C1,-0.59,/
CC(=O)Nc1ccc(NC(=O)C2CCCN(S(=O)(=O)c3ccc4c(c3)oc(=O)n4C)C2)cc1 (configuration not stated),/,-1.24
CC1Cc2cc(S(=O)(=O)N(C)CC(=O)N3CCc4ccccc43)ccc2N1C(=O)C1CCC1 (configuration not stated),-0.14,/
S=c1nc(NCCc2ccccc2)c2ccccc2[nH]1,/,-4.93
CCCc1[nH]nc2c1C(c1ccc(O)c(OC)c1)C(C#N)=C(N)O2 (configuration not stated),0.8,-1.63
Cc1nn(C)c(C)c1CNS(=O)(=O)c1ccc2c(c1)oc(=O)n2C,0.45,/
CCCNC(=O)C1CCC(Cn2c(=O)c3sccc3n(CC(N)=O)c2=O)CC1 (configuration not stated),-0.51,/
CCOC(=O)c1c(NC(=O)c2nn(C)cc2[N+](=O)[O-])sc2c1CCCC2,0.75,-1.31
O=C(c1ccccc1)c1cn(Cc2ccccc2F)c2cc3c(cc2c1=O)OCCO3,6.05,0.3
CCN(CC)CCNC(=O)C(C)n1nc(C)c2sc3ccccc3c2c1=O (configuration not stated),0.25,-1.27
COc1ccc(C2CC(C(F)(F)F)n3ncc(C(=O)NCc4cccs4)c3N2)cc1OC (configuration not stated),/,-1
Cc1cccc(Cn2cc(C(=O)c3ccc(F)cc3)c(=O)c3cc4c(cc32)OCCO4)c1,1.29,1.39
Cc1ccc(-c2cc3c4c(C)n(Cc5ccc6c(c5)OCO6)c(C)c4c(C)nn3c2)o1,35.5*,22.9*
CC(=O)NC1=NN(C(C)=O)C(c2cccnc2)S1 (configuration not stated),/,0.27
CSc1nc2sc3c(c2c(=O)n1-c1ccccc1C)CC(C)(C)OC3,/,-1.72
Cc1cc(C)c2c(=O)cc(C(=O)N(Cc3cccc(Cl)c3)C3CCS(=O)(=O)C3)oc2c1 (configuration not stated),0.25,-1.41
OCCN1CCn2c(nc3cc(Cl)ccc32)C1,-0.24,0.59
CCOc1c(N2CCSCC2)c(=O)c1=O,/,-2.14
CC1(C)Cc2nc3oc4c(SCC(=O)NCc5ccco5)ncnc4c3cc2CO1,0.58,/
CC(C)C1C(=O)Nc2ccc(S(=O)(=O)NC3CCCCC3)cc21 (configuration not stated),0.89,/
CCNc1ncnc2c1cnn2-c1ccc(C)cc1,0.22,/
CCCN1CN(Cc2ccccc2)CNC1=S,/,-0.12
O=c1oc(-c2ccc(Cl)cc2)nnc1-c1ccccc1,/,-1.38
O=C(Cn1cnc2c(nc3n2CCCCC3)c1=O)N1CCN(c2ccc(Cl)cc2)CC1,-0.21,/
CN1CCN(c2ccc3nnc(CCC(=O)Nc4cc(F)ccc4F)n3n2)CC1,1.21,/
CC1CCN(c2c(NCC3CCC(C(=O)NC4CCCCC4C)CC3)c(=O)c2=O)CC1 (configuration not stated),/,0.53
c1ccn2cc(C34CC5CC(CC(C5)C3)C4)cc2c1,/,-1.97
O=C1CCSc2ccc(S(=O)(=O)N(CCCN3CCOCC3)Cc3ccco3)cc2N1,0.55,/
O=c1c2sc3ccccc3c2[nH]c(=S)n1Cc1ccc2c(c1)OCO2,/,-1.7

# (cont.)
compound,HIV TAR-Tat,CDC25B CDK2 inh
CC(=O)c1ccc(C#Cc2ccccc2)s1,/,-0.84
Nc1ccc2nc(-c3cccc(-c4nc5ccc(N)cc5s4)c3)sc2c1,1.55,-0.05
CCC(=O)NC(c1ccco1)c1cc(Cl)c2cccnc2c1O (configuration not stated),/,-2.78
CCOC(=O)c1c(C)n(C)c2ccc(OCC(O)CN3CCOCC3)cc12 (configuration not stated),-0.63,-0.12
CC(C)CCNC(=O)C1CCCN(S(=O)(=O)c2ccc3c(c2)C(C)(C)C(=O)N3C)C1 (configuration not stated),1.09,-2.09
O=C(NCc1ccccn1)c1ccc(-n2ccc3ccccc32)s1,1.52,/
CCCNC(=O)c1c(N2CCCC2=O)c2cc(F)ccc2n1C,-0.31,/
O=C1c2ccccc2C(=O)C1(c1ccccc1)N1CCN(c2ccccc2)CC1,-0.57,-2.07
CCn1c(C(=O)N2CCCC(C(=O)O)C2)cc2sccc21 (configuration not stated),0.24,0.38
C=CCNC(=O)c1ccccc1NC(=O)C1=CSCCO1,1.03,/
CSc1cccc(NS(=O)(=O)c2ccc(N3CCCC3=O)cc2)c1,-0.12,/
CCc1nn2c(=O)cc(CSc3ccccc3C(=O)O)nc2s1,0.41,-1.27
CCCn1c(SCc2nc(-c3ccc(OC)cc3)no2)nnc1-c1ccncc1,-0.63,-2.1
CC1=C(C#N)C(c2ccccc2OCc2ccccc2)C2=C(CCCC2=O)N1 (configuration not stated),0.87,-0.52
CC(C)Cn1c(CN2CCCCC2)nc2c1c(=O)n(C)c(=O)n2C,/,-1.29
COc1ccc(C(O)c2nccn2C)cc1OC (configuration not stated),-0.25,-1.54
O=C1COc2ccc(C3=Nc4ccccc4SC(c4ccccc4)C3)cc2N1 (configuration not stated),0.13,-1.44
O=C(CCCCCCCCCCCCC1CCCC1)Nc1ccc(S(=O)(=O)c2ccc(NC(=O)CCCCCCCCCCCCC3CCCC3)cc2)cc1,-0.1,/
Cc1ccc(S(=O)(=O)[C@H]2CS(=O)(=O)C[C@@H]2N2CCCC2)cc1,-0.72,-1.09

# Screening results deposited in PubChem BioAssay by Center for Chemical Genomics, University of Michigan.
